From PubChem BioAssay
2A firefly: lowers the firefly signal of an FMDV 2A StopGo reporter. Potency, µM (top dose mostly 57.5 µM), without a hit: at the highest dose signal change, negative = less light. HEK cells with a luciferase reporter of 2A StopGo recoding. 120,000 tested, 0.23% active. AID 1745856; active = well fitted falling curve with a large enough effect; inconclusive = small, poorly fitted or top-dose-only effect; inactive = no such curve, though single readings can be large or run the other way; further: nearly all actives have a fitted effect of over 60% in size; overnight with compound
StopGo RLuc: lowers the Renilla signal of an FMDV 2A StopGo reporter; HEK cells with a luciferase reporter of 2A StopGo recoding; Potency, µM (titrated, usually from 57.5 µM), inactives show at the highest dose signal change, negative = less light; 120,000 tested, 0.32% active; AID 1745857; active means well fitted falling curve with a large enough effect; inconclusive means small, poorly fitted or top-dose-only effect; inactive means no such curve, though single readings can be large or run the other way; further: nearly all actives have a fitted effect of over 55% in size; overnight with compound
* hit, by the source's call; u = inconclusive; [ ] = another dose, or the depositor's remark. On the % scale 0 is the no-effect control and ±100 the full control effect; potency means the concentration at half of the fitted maximal effect.

SMILES: COc1ccc(C2=NN(CN3C(=O)C(=O)c4ccccc43)C(c3ccc(Br)cc3)C2)cc1 (stereo not drawn)
  2A firefly = 45%[activator] | StopGo RLuc = 3%

SMILES: CC(=O)NCC(c1ccc2c(c1)OCO2)N1CCN(c2ccccc2)CC1 (stereo not drawn)
  2A firefly = -16% | StopGo RLuc = -16%

SMILES: Fc1ccc(Nc2nc(NCC3CCCO3)nc3c2cnn3-c2ccccc2)cc1 (stereo not drawn)
  2A firefly = 11% | StopGo RLuc = 52%[activator]

SMILES: COC(=O)c1ccc(CNC(=O)c2ccc(C(C)C)cc2)cc1
  2A firefly = 0% | StopGo RLuc = -8%[1.06 µM]

SMILES: CCC(C)(C)NC(=O)CNc1cccc(-c2nnnn2C)c1
  2A firefly = 14% | StopGo RLuc = 57%[activator]

SMILES: CCc1ccc(-c2cc(C(=O)NCc3ccco3)c3ccccc3n2)cc1
  2A firefly = 78%[activator] | StopGo RLuc = 1%

SMILES: Cc1ccc(CNCC2CCNCC2)s1
  2A firefly = 18% | StopGo RLuc = -13%

SMILES: COc1ccc2c(=O)c(Oc3ccc(C)cc3)c(C(F)(F)F)oc2c1
  2A firefly = 0% | StopGo RLuc = 40%

SMILES: Cc1ccc(CNC(=O)C(C(C)C)N2Cc3ccccc3C2=O)cc1 (stereo not drawn)
  2A firefly = -17% | StopGo RLuc = 5%

SMILES: CCCCCn1c(SCCN2CCOCC2)nc2c1c(=O)[nH]c(=O)n2C
  2A firefly = -10% | StopGo RLuc = -12%

SMILES: Cc1[nH]c(C)c(S(=O)(=O)NCCC(=O)NCc2ccc(F)cc2)c1C(=O)N1CCCC1
  2A firefly = 4% | StopGo RLuc = 4%

SMILES: C=CC#CC[N+](CC)(CC)CC#Cc1ccccc1
  2A firefly = u | StopGo RLuc = 0%[1.06 µM]

SMILES: Cc1ccc(-c2noc(-c3cn(CC(=O)NCc4cccs4)c4nc(C)ccc4c3=O)n2)cc1
  2A firefly = 22% | StopGo RLuc = 2%

SMILES: CCc1ccc(C(=O)NCCOC)cc1
  2A firefly = 79%[activator] | StopGo RLuc = 7%

SMILES: COc1ccc(C)cc1NC(=O)COCc1cc(-c2cccs2)on1
  2A firefly = 0% | StopGo RLuc = 32%[activator]

SMILES: CCCNC(=O)c1ccc(-n2nc(Sc3ccc(Cl)cc3)ccc2=O)cc1
  2A firefly = -3% | StopGo RLuc = -11%

SMILES: CCC(Cn1nnc2ccccc2c1=O)NC(=O)Nc1ccccc1OC (stereo not drawn)
  2A firefly = u | StopGo RLuc = u

SMILES: N=C(N)c1ccc(OCCCOc2ccc(C(=N)N)cc2)cc1
  2A firefly = -9% | StopGo RLuc = -14%

SMILES: O=C(CSc1nnc(-c2ccncc2)n1CC(F)(F)F)NCC1CC1
  2A firefly = 1% | StopGo RLuc = -5%

SMILES: COc1ccc(CCNC(=O)c2cc(-c3ccc(C)c(C)c3O)n[nH]2)cc1OC
  2A firefly = 1% | StopGo RLuc = -15%

Given tab-delimited: 4 of the compounds above.
mol	2A firefly	StopGo RLuc
COc1ccc(C2=NN(CN3C(=O)C(=O)c4ccccc43)C(c3ccc(Br)cc3)C2)cc1 (stereo not drawn)	45%[activator]	3%
CC(=O)NCC(c1ccc2c(c1)OCO2)N1CCN(c2ccccc2)CC1 (stereo not drawn)	-16%	-16%
Fc1ccc(Nc2nc(NCC3CCCO3)nc3c2cnn3-c2ccccc2)cc1 (stereo not drawn)	11%	52%[activator]
COC(=O)c1ccc(CNC(=O)c2ccc(C(C)C)cc2)cc1	0%	-8%[1.06 µM]

Next records:
SMILES: Cc1ccc(NC(=O)c2c(C)oc3ccc(O)c(CN4CCCCCC4)c23)cc1
  2A firefly = -9% | StopGo RLuc = -12%

SMILES: Cc1ccc(CN2C(=O)C3(SCC(=O)N3c3ccc(C)c(C)c3)c3ccccc32)cc1 (stereo not drawn)
  2A firefly = 12% | StopGo RLuc = -3%

SMILES: Cc1c(Cl)cccc1-c1ccc(C=O)o1
  2A firefly = 0% | StopGo RLuc = u

SMILES: COc1ccc(NC(C)=O)cc1NC(=O)c1nc(-c2ccccc2)oc1C
  2A firefly = -7% | StopGo RLuc = -4%

SMILES: COC(=O)c1c(Cl)c(C)nc2onc(C)c12
  2A firefly = u | StopGo RLuc = 6%[1.06 µM]

SMILES: CC(C)Cn1nc(C(=O)NCC2(N3CCOCC3)CCCCC2)c2ccccc2c1=O
  2A firefly = 0% | StopGo RLuc = 15%

SMILES: N#Cc1ccc(C(=O)NC2CCSc3c(F)cccc32)cc1 (stereo not drawn)
  2A firefly = 29% | StopGo RLuc = -4%

SMILES: COc1ccc(-n2c(SCC3CCOCO3)nnc2-c2ccccc2)cc1OC (stereo not drawn)
  2A firefly = 4% | StopGo RLuc = 7%

SMILES: COc1cc(-c2nnc(SCC(=O)NC(C)C)o2)cc(OC)c1OC
  2A firefly = 24% | StopGo RLuc = 31%[activator]

SMILES: COc1ccc(C(=O)N2CCc3c(sc4ncnc(N)c34)C2)cc1OC
  2A firefly = 6% | StopGo RLuc = 10%

Seven consecutive compounds already listed, quoted:
SMILES: COc1ccc(NC(C)=O)cc1NC(=O)c1nc(-c2ccccc2)oc1C
  2A firefly = -7% | StopGo RLuc = -4%

SMILES: COC(=O)c1c(Cl)c(C)nc2onc(C)c12
  2A firefly = u | StopGo RLuc = 6%[1.06 µM]

SMILES: CC(C)Cn1nc(C(=O)NCC2(N3CCOCC3)CCCCC2)c2ccccc2c1=O
  2A firefly = 0% | StopGo RLuc = 15%

SMILES: N#Cc1ccc(C(=O)NC2CCSc3c(F)cccc32)cc1 (stereo not drawn)
  2A firefly = 29% | StopGo RLuc = -4%

SMILES: COc1ccc(-n2c(SCC3CCOCO3)nnc2-c2ccccc2)cc1OC (stereo not drawn)
  2A firefly = 4% | StopGo RLuc = 7%

SMILES: COc1cc(-c2nnc(SCC(=O)NC(C)C)o2)cc(OC)c1OC
  2A firefly = 24% | StopGo RLuc = 31%[activator]

SMILES: COc1ccc(C(=O)N2CCc3c(sc4ncnc(N)c34)C2)cc1OC
  2A firefly = 6% | StopGo RLuc = 10%

Next structures:
SMILES: CCOP(=O)(OCC)c1nc(-c2ccccc2)oc1N(C)C
  2A firefly = 13% | StopGo RLuc = -1%

SMILES: COc1ccc(C(=O)OCC(=O)NC2CCCCC2)cc1F
  2A firefly = -2% | StopGo RLuc = -5%

SMILES: CCOC(=O)C(=CNC(N)=O)C(=O)OCC
  2A firefly = -17% | StopGo RLuc = -22%

SMILES: O=C(O)C(c1c[nH]c2ccc(OCc3ccccc3)cc12)N1CCN(CC(=O)N2CCOCC2)CC1 (stereo not drawn)
  2A firefly = 23% | StopGo RLuc = 5%

SMILES: COc1ccc(CCn2c(SCc3ccccc3)nc3c2c(=O)n(C)c(=O)n3C)cc1
  2A firefly = 1% | StopGo RLuc = -7%

SMILES: O=C(NCc1ccc(Cl)cc1)c1ccc2c(c1)N(Cc1ccccc1F)C(=O)c1ccccc1S2=O (stereo not drawn)
  2A firefly = -6% | StopGo RLuc = 17%

SMILES: CN(C(=O)CSc1nc2ccccc2n1CC(=O)N(C)C1CCCCC1)c1ccccc1
  2A firefly = -2% | StopGo RLuc = 35%[activator]

SMILES: Cc1ccc(C)c(NC(=O)CSc2nc(=O)n(CCN3CCOCC3)c3c2CCC3)c1
  2A firefly = -16% | StopGo RLuc = -7%

SMILES: CC(=O)C(Sc1ccc([N+](=O)[O-])cc1)C(C)=O
  2A firefly = 15% | StopGo RLuc = 7%

SMILES: Cc1cc2oc(=O)cc(-c3cc4ccccc4o3)c2cc1O
  2A firefly = 10% | StopGo RLuc = -7%

Some of the entries so far, in CSV form:
Molecule,2A firefly,StopGo RLuc
CCOC(=O)C(=CNC(N)=O)C(=O)OCC,-17%,-22%
O=C(O)C(c1c[nH]c2ccc(OCc3ccccc3)cc12)N1CCN(CC(=O)N2CCOCC2)CC1 (stereo not drawn),23%,5%
COc1ccc(CCn2c(SCc3ccccc3)nc3c2c(=O)n(C)c(=O)n3C)cc1,1%,-7%

The list goes on.
Every second line gives: 2A firefly, StopGo RLuc
Cc1ccc(C(=O)N/N=C2/CC(C)CC(C)(C)C2)c(C)c1 (stereo not drawn)
    0%, 5%
CC(=O)c1cn(CCOc2ccccc2F)c2ccccc12
    u, 8.9µM*
Cc1ccc(NC(=O)COC(=O)c2ccc(C3Nc4ccccc4S(=O)(=O)N3)cc2)cc1 (stereo not drawn)
    3%, -8%
Cc1oc2ncn(C)c(=O)c2c1C(=O)Nc1ccccn1
    25%, 8%
CC(=O)N1CCCc2cc(S(=O)(=O)N3CCC(C(=O)NC4CCC(C)CC4)CC3)ccc21 (stereo not drawn)
    15%, -13%
Cc1noc(/C=C\c2ccc(S(=O)(=O)N3CCc4ccccc43)cc2)c1NC(=O)C1CC1
    u, -26%
COc1ccc(NCC(=O)NNC(=O)CCOc2ccccc2OC)cc1
    -3%, -1%
CC(=O)c1ccc(Oc2ncnc3c2oc2ccccc23)cc1
    125%[activator], -18%
CN(CCCC(=O)N1CCc2ccccc2C1)S(=O)(=O)c1ccc(F)cc1
    -24%, -19%
COC(=O)Cc1c(C)nc2nc(-c3ccc(C)cc3)[nH]n2c1=O
    8%, -7%
O=C(Cc1cc(Cl)c2c(c1)OCCO2)NC1CCN(CC2CCCCC2)CC1
    0%, -3%
CN(CC(=O)Nc1ccccc1Cl)C(=O)COc1ccc2oc3c(c2c1)CCCC3
    -7%, 2%
COc1cccc(CN(C)CC(=O)NC(=O)NC2CC2)c1OC
    34%[activator], 13%
Cc1cc(Br)ccc1NC(=O)CN(C)Cc1ncc(-c2ccc(F)cc2)o1
    2%, -15%
COc1ccccc1NC(=O)CC1SCCNC1=O (stereo not drawn)
    -5%, -8%
N#C/C(=C/c1cc(Cl)ccc1OCc1cccnc1)c1ccc(C(F)(F)F)cn1
    8%, 4%
Cc1cc(C)c2[nH]c(C(=O)O)cc2c1
    16%, -1%
Cc1c(C)[n+](=O)c(-c2ccc(F)cc2)c(C)n1[O-]
    -3%, -6%
CCOC(=O)N1CCN(C(=O)c2cnn(-c3cccc(F)c3)c2-n2cccc2)CC1
    -9%, -2%
O=C(Nc1c(-c2ccccc2)nc2sccn12)c1ccc(S(=O)(=O)N2CCOCC2)cc1
    41%[activator], 14%
CC(Cc1ccccc1)N(C)Cc1ccco1 (stereo not drawn)
    -16%, -8%
CC(C)(C)OC(=O)Nc1ccc(C(=O)NCC(c2ccco2)N2CCCC2)cc1 (stereo not drawn)
    4%, -9%
Cc1c(O)ccc2c(CN3CCN(CCO)CC3)cc(=O)oc12
    -8%, 3%
CCOc1ccc(Nc2nc3c(S(=O)(=O)c4ccc(C(C)C)cc4)nnn3c3ccsc23)cc1
    -25%, 6%
Cc1ccc(NC(=O)CCCn2cnc3c2c(=O)n(C)c(=O)n3C)cc1
    2%, -11%
Cc1cc(C(=O)NC2CCCc3ccccc32)cs1 (stereo not drawn)
    42%[activator], 74%[activator]
CCCCCCCCSCCCCCCCO
    16%, u
COc1ccc(/C=C/C(=O)Nc2nc(-c3cccs3)ns2)cc1OC
    -6%, -12%
CCCS(=O)(=O)c1ncc(Cl)c(C(=O)N2CCN(c3ccc(OC)cc3)CC2)n1
    -23%, -1%
CCC(CO)Nc1nc2c(c(=O)n(Cc3ccc(Cl)cc3Cl)c(=O)n2C)n1C (stereo not drawn)
    -5%, -6%
CCCn1c(N2CCOCC2)nc2c1c(=O)n(C)c(=O)n2C
    10%, 5%
CCc1cccc2c(C(=O)O)cc(-c3cccnc3)nc12
    37%[activator], 31%[activator]
CNC(=O)C(CCSC)NC(=O)c1ccc2ccccc2n1 (stereo not drawn)
    -7%, 0%
CC1=C(C(=O)Nc2cccc(C)c2C)C2(CCCCC2)OC1=O
    49%[activator], 27%
Cc1cc(C)n2c(Nc3ccc(C(C)C)cc3)c(-c3ccsc3)nc2n1
    67%[activator], 35%[activator]
COc1cc2c(cc1OC)C(COc1ccc(F)cc1)N(C(=O)Cc1ccccc1)CC2 (stereo not drawn)
    -14%, 30%[activator]
Cc1ccc(CNC(=O)C2CCN(S(=O)(=O)c3ccc4c(c3)oc(=O)n4C)CC2)cc1
    -14%, -8%
COc1ccc(N2CCN(CCCNC(=O)c3cc(Nc4ccccc4OC)nc4ccccc34)CC2)cc1
    -7%, 6%
Cc1ccc2oc(=O)c3cnn(CC(=O)Nc4cccc(C(F)(F)F)c4)c3c2c1
    -14%, -10%
Cc1ccc(C(=O)NC(C)(C)CO)cc1
    21%, -3%
CSc1ccc(CCNC(=O)C2CCCN(c3nn4cc(-c5ccc(F)cc5)nc4s3)C2)cc1 (stereo not drawn)
    u, -15%
N#Cc1c(-c2ccc(Cl)cc2)cc(-c2ccc(Br)cc2)c(C#N)c1N
    5%, -4%
O=C(CSc1nc2nc[nH]c2c(=O)[nH]1)NCc1ccccc1Cl
    -9%, -16%
O=C(NCc1ccc2c(c1)CCN2C(=O)c1ccccc1)c1ccccc1
    -20%, -17%
O=C(Nc1sc2c(c1C(=O)O)CCC2)c1cccs1
    40%[activator], -19%
COc1ccc(C(=O)Sc2ccc(Cl)cc2)cc1
    12%, -13%
Cc1nc(-c2cccc(F)c2)sc1CCNC(=O)C(=O)Nc1ccc2c(c1)OCCO2
    11%, -14%
N#CCCN1CCN(C(C(=O)O)c2cn(CCC(=O)O)c3ccc(Br)cc23)CC1 (stereo not drawn)
    12%, 3%
O=C(NC1CC(=O)N(c2cccc(F)c2)C1)C1CC1 (stereo not drawn)
    -8%, -5%
O=C(NCC(c1cccnc1)N1CCc2ccccc21)c1cccc(Br)c1 (stereo not drawn)
    -9%, -8%
O=C(NCc1ccccc1)Nc1c(NC2CCCCC2)c2ccccc2oc1=O
    -8%, 9%
